From PubChem
CtBP-E1A blk: CtBP/E1A binding inhibition | AlphaScreen GST-E1A/His-CtBP binding, 1536-well; active compounds read low; control for the full effect not named in the record | activity change, % (concentration not given with the values) | 340,000 tested, 0.49% active; in the data active means activity change below about -65%; inconclusive means about -30% to -65%; inactive means above about -30%; also: % is scaled to controls: 0 for no effect and ±100 for the full control effect
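AlphaScreen with 125 nM GST-E1A and 125 nM His-CtBP (5X stocks) in Tris pH 8.0, 300 mM NaCl, BSA, Tween 20, TCEP. Compounds preincubated 2 h at 37 deg C, then glutathione donor/nickel acceptor beads added for 1 h at 37 deg C in dark.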
Six1-Eya2 blk: inhibitors of human Six1/Eya2 interaction. activity change, % (test concentration not listed). 360,000 tested, 0.56% active. Q15475+O00167. AlphaScreen GST-Six1/His-Eya2 binding, biochemical; active compounds read low; control for the full effect not named in the record; in the data active = activity change below about -65%; inconclusive = about -30% to -65%; inactive = above about -30%; also: % is scaled to controls: 0 for no effect and ±100 for the full control effect
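Compounds are tested against tagged Six1 and Eya2 proteins bridged by glutathione donor and nickel acceptor beads; after a one-hour incubation at 37 °C without light, AlphaScreen emission is recorded.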
D2 PAM: positive allosteric modulators of human D2 dopamine receptor | 360,000 tested, 0.23% active | P14416 | AID 624464 | potentiation, % (test concentration not listed) | DiscoveRx D2 beta-arrestin cells, luminescence, 90 min; 100% = 57 uM dopamine signal; active = potentiation of 50% or more; inconclusive = 30% to 50%; inactive = 30% or less;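 also: compound concentration not given in the record; tested on top of an EC20 dose of dopamine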
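D2 cells co-treated with compound plus 50 nM dopamine (EC20) for 90 min at 37 deg C to detect potentiation. Beta-arrestin recruitment was read as enzyme-fragment luminescence after 1 h at ambient temperature. Full response was set by 57 uM dopamine.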
TRPML1 blocker: inhibitors of human TRPML1 channel | Q9GZU1 | TRPML1-inducible cells, Ca2+ dye fluorescence, FDSS; active compounds read low; inhibition of EC80 agonist-evoked calcium signal | activity change, negative = inhibition, % (test concentration not listed) | 390,000 tested, 0.02% active | AID 624415; in the data active means activity change below about -50%; inconclusive means about -30% to -50%; inactive means above about -30%;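 also: stimulus is agonist 54-4 at its EC80 concentration; % is scaled to controls: 0 for no effect and ±100 for the full control effect; compound concentration not given in the record; the text of the record puts the active cut at -80%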
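TRPML1-DL cells, Tet-induced overnight (~16 h, 37 °C) at 1,500 cells/well, were loaded with Ca8 no-wash dye plus quencher for 45-90 min at room temperature. Compounds were pinned during FDSS kinetic reading; agonist 54-4 at EC80 (4 uM final) then added.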
TRPV1 PAM: potentiators of human vanilloid receptor 1 (TRPV1). Q8NER1. TRPV1-expressing cells, Fluo-8 calcium influx, capsaicin EC20 potentiation; host cell line not named in the record; control for the full effect not named in the record. potentiation, % at 8.33 µM. 320,000 tested, 0.02% active. AID 540277; active means potentiation above 80%; inconclusive means 30% to 80%; inactive means below 30%; also: 0% is about no effect
Target sequence (Q8NER1 whole entry, looked up): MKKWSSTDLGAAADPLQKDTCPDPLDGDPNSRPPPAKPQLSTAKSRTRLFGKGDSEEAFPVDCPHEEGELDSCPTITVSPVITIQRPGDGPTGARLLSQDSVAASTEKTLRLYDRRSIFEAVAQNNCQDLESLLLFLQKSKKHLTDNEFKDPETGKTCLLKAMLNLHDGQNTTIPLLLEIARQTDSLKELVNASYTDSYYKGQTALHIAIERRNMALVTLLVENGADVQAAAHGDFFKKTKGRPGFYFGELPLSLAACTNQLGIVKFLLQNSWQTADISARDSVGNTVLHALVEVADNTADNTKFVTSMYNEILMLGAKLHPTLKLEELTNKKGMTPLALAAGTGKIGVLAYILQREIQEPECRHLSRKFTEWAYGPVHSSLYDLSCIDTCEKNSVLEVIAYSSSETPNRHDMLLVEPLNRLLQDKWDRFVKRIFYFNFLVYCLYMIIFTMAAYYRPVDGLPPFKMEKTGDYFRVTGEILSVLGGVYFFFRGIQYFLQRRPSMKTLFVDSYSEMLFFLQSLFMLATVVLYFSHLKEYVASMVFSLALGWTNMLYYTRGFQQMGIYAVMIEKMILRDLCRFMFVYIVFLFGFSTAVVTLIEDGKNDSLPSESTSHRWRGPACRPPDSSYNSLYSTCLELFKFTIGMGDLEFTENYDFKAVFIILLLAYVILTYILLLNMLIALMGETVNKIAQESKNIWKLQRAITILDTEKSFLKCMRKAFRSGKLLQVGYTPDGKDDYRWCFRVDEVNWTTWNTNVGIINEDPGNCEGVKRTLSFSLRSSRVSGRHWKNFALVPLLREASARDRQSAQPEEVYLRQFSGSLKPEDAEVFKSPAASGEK
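TRPV1-expressing cells were cultured overnight at 35.5C and loaded with Fluo-8 calcium dye for 40 to 90 min at room temperature. After a 10 s baseline, compound was added and calcium influx was read kinetically for 3 min (ex 480/em 520 nm).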
TRPML1 ag: human mucolipin-1 channel agonism; Q9GZU1; TRPML1-expressing cells, Ca2+ dye fluorescence, FDSS; host cell line not named in the record; reference of the full effect not given here; activation, % (test concentration not listed); 410,000 tested, 0.12% active; AID 624414; in the data active = activation above about 50%; inconclusive = about 30% to 50%; inactive = below about 30%; also: 0% is about no effect; the text of the record puts the active cut at 80%
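Tetracycline-induced TRPML1-DL cells are seeded and incubated overnight before loading with a no-wash Ca2+ dye and quencher. Agonist activity is taken from the 110 s fluorescence read following compound pin-transfer on an FDSS, before EC80 54-4 challenge.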
Active calls of the source: *; ? = inconclusive; . = not tested or not shown.

[1] CC(OC(=O)C1CCN(c2ccc(C(F)(F)F)cn2)CC1)C(=O)c1ccccc1 (configuration not stated)
[2] O=[N+]([O-])c1ccc(/C=C/C2=NN(c3ccccc3)C(c3ccco3)C2)cc1 (configuration not stated)
[3] CCCS(=O)(=O)NC(=O)C1(C)CCCN(C(=O)Cc2ccc3ccccc3c2)C1 (configuration not stated)
[4] CCOC(=O)C1C(c2ccc(O)cc2)NC(=O)NC1(O)C(F)(F)F (configuration not stated)
[5] COc1ccc(C(=O)N/N=C\c2coc3ccc(Cl)cc3c2=O)cc1
[6] O=C(CS(=O)(=O)Cc1ccccc1)Nc1nc2c(s1)CCCC2
[7] CCCC(=O)Nc1ccc2nn(-c3ccc(OC)cc3)nc2c1
[8] CCNC(=S)NCc1ccc(Cl)cc1
Assay by compound	1	2	3	4	5	6	7	8
TRPML1 blocker	1.1	-13.2	.	8.2	-1.5	24.5	-10.9	2.7
TRPML1 ag	1.8	59.5*	-0.3	-0.5	1.0	-0.6	0.0	-1.2
CtBP-E1A blk	-1.6	-7.5	7.1	5.5	-3.6	-1.4	-0.4	6.5
D2 PAM	6.0	-4.2	-3.4	-0.7	-8.9	-6.0	4.3	-12.8
Six1-Eya2 blk	37.5	-11.9	-8.5	-1.0	-11.7	-5.9	-0.2	6.7
TRPV1 PAM	-13.2	25.9	.	-12.0	1.9	-7.3	6.6	.

[9] COc1ccc(N(CC(=O)Nc2cc(Cl)ccc2OC)C2=NC3CS(=O)(=O)CC3S2)cc1 (configuration not stated)
[10] COc1ccc(CNC(=O)N2CCN(c3cccc(C)c3C)CC2)cc1OC
[11] Cc1ccc(CNC(=O)CCC(=O)N2CC(C)Oc3ccc(Cl)cc32)cc1 (configuration not stated)
[12] COc1ccc(C(=O)NC(C(=O)N2CCc3ccccc32)C(C)C)cc1 (configuration not stated)
[13] Cc1ccc(NC(=O)CN2CCOCC2)cc1C
[14] O=C(NCCc1cccc(C(F)(F)F)c1)C1CCC(=O)N(CCc2cccc(F)c2)C1 (configuration not stated)
[15] COc1ccc2[nH]c3c(N4CCC(O)(c5cccc(C(F)(F)F)c5)CC4)ncnc3c2c1
[16] O=c1n(-c2ccccc2)c(=O)n2n1CC(O)C2
Assay by compound	9	10	11	12	13	14	15	16
TRPML1 blocker	-2.5	3.4	2.6	10.6	19.8	3.5	-11.5	-18.4
TRPML1 ag	0.1	0.5	-0.2	0.1	-0.2	-0.7	0.7	-0.2
CtBP-E1A blk	3.0	-8.4	0.4	25.2	6.2	2.0	-13.5	-5.8
D2 PAM	-2.0	1.0	-10.6	-10.3	-18.2	-11.4	-0.7	-2.5
Six1-Eya2 blk	3.8	-4.7	1.7	4.6	-14.0	2.2	-10.5	-2.2
TRPV1 PAM	-1.2	0.6	-56.2	-21.1	-14.1	-9.1	6.2	4.0

[17] CCOc1ccc2nc(SCC(=O)c3ccccc3)sc2c1
[18] Cc1ccc(C(C)C)cc1S(=O)(=O)NCc1ccccn1
[19] CCOc1ccc(CN2CCNC(=O)C2CC(=O)NCc2csc(C(C)C)n2)cc1 (configuration not stated)
[20] CCCCCCOc1ccc(N2C(=O)CC(NCCc3ccc(S(N)(=O)=O)cc3)C2=O)cc1 (configuration not stated)
[21] CNC(=O)CN1C(=O)NC2(CCc3ccccc3C2)C1=O (configuration not stated)
[22] N/C(=N\OC(=O)Cc1ccccc1)c1ccncc1
[23] COc1ccc(CC(=O)N/N=C/c2ccc(Cl)s2)cc1OC
[24] COc1ccc(-c2ccc(C3C(C#N)=C(N)Oc4n[nH]c(C)c43)o2)cc1 (configuration not stated)
Assay by compound	17	18	19	20	21	22	23	24
TRPML1 blocker	-15.5	16.6	13.3	-13.2	-7.5	-10.0	13.7	8.1
TRPML1 ag	2.2	-0.8	-0.3	-0.6	-0.2	1.5	0.9	15.8
CtBP-E1A blk	8.8	.	-9.2	3.3	7.4	-1.5	-11.2	-66.9*
D2 PAM	4.7	6.0	-6.9	11.6	-8.6	2.1	-16.6	1.8
Six1-Eya2 blk	25.0	-0.6	1.6	7.1	-12.6	2.0	4.3	?
TRPV1 PAM	26.1	-10.5	5.4	9.0	6.8	10.7	-15.6	1.8

Records listed above marked active in CtBP-E1A blk.
| entry | molecule | TRPML1 blocker | CtBP-E1A blk | D2 PAM | Six1-Eya2 blk |
| --- | --- | --- | --- | --- | --- |
| 24 | COc1ccc(-c2ccc(C3C(C#N)=C(N)Oc4n[nH]c(C)c43)o2)cc1 (configuration not stated) | 8.1 | -66.9* | 1.8 | ? |

Additional entries:
[25] Nc1nc2n(n1)C(c1ccco1)CC(c1ccccc1)N2 (configuration not stated)
[26] CCOC(=O)c1cc2c(=O)n3cccc(C)c3nc2n(CCOC)c1=NC(C)=O
[27] Cc1ccc(S(=O)(=O)/N=C(/Nc2c(C)n(C)n(-c3ccccc3)c2=O)c2ccccc2)cc1
[28] Cc1cccc(C)c1OCc1cc(C(=O)N2CCN(C3CCCC3)CC2)no1
[29] COc1ccccc1CN1CCCC(N2CCN(c3ccccc3OC)CC2)C1 (configuration not stated)
[30] COc1ccc(C(=O)[C@@H]2CC[C@](C)(C(=O)O)C2(C)C)cc1
[31] Cc1c(C(=O)Oc2cccc3cccnc23)cccc1[N+](=O)[O-]
[32] C/C=C/c1ccc2c(c1)O[C@H](CN(C)C(=O)NC1CCCC1)[C@H](C)CN([C@H](C)CO)S2(=O)=O
Assay by compound	25	26	27	28	29	30	31	32
TRPML1 blocker	-17.9	5.9	9.7	0.5	-21.5	8.4	20.5	19.4
TRPML1 ag	0.7	0.6	-0.6	1.5	0.4	-0.5	0.9	1.2
CtBP-E1A blk	-14.8	-17.6	1.5	0.8	-3.3	.	2.0	-25.5
D2 PAM	-8.4	-4.4	-6.8	-18.9	-2.6	-4.4	-10.1	-2.1
Six1-Eya2 blk	-3.3	-9.1	1.3	-5.0	2.0	-2.3	-88.5*	11.2
TRPV1 PAM	0.8	-0.4	8.4	-11.0	-9.0	-23.2	-0.9	.

[33] CCN(CC(=O)NCc1ccc(Cl)cc1)C(=O)c1cnc(Cl)c(Cl)c1
[34] O=C1CCCN1CCCNCCCn1cnc2c(OCc3ccccc3)ncnc21
[35] Cc1cc2[nH]c(=O)c(=O)[nH]c2cc1S(=O)(=O)NC1CCCCC1C (configuration not stated)
[36] COc1ccccc1-c1c(C)oc2c(CN3CCN(CCO)CC3)c(O)ccc2c1=O
[37] O=C(COC(=O)c1ccc(O)cc1)Nc1cc(S(=O)(=O)N2CCOCC2)ccc1N1CCOCC1
[38] CCCN(C(=O)c1cc(C)ccc1C)c1c(N)n(Cc2ccccc2)c(=O)[nH]c1=O
[39] COCCn1cnnc1SCC(=O)Nc1ccc(N2CCCCC2)cc1
[40] CCN(CC)c1ncnc2c1ncn2[C@H]1CN(Cc2ccc(-c3ccccc3)cc2)C[C@@H](CO)O1
Assay by compound	33	34	35	36	37	38	39	40
TRPML1 blocker	-1.7	-28.8	18.1	28.9	-10.1	1.2	3.8	.
TRPML1 ag	-0.7	1.1	0.7	-1.0	0.6	0.4	0.1	0.5
CtBP-E1A blk	3.3	0.0	-24.6	4.0	1.3	-3.3	-0.3	-7.8
D2 PAM	0.3	0.4	-2.4	-26.8	2.0	2.2	-21.7	-6.8
Six1-Eya2 blk	-1.8	24.6	7.3	8.5	-1.1	1.4	2.0	-13.8
TRPV1 PAM	21.7	.	19.0	-17.7	.	15.6	25.0	.

Record cards (already shown). Screens in order: TRPML1 blocker	TRPML1 ag	CtBP-E1A blk	D2 PAM	Six1-Eya2 blk	TRPV1 PAM
Record of CC(OC(=O)C1CCN(c2ccc(C(F)(F)F)cn2)CC1)C(=O)c1ccccc1 (configuration not stated) : 1.1	1.8	-1.6	6.0	37.5	-13.2
Record of O=C(CS(=O)(=O)Cc1ccccc1)Nc1nc2c(s1)CCCC2 : 24.5	-0.6	-1.4	-6.0	-5.9	-7.3

Next structures
[41] CSc1nnc([C@H](Cc2c[nH]c3ccccc23)NC(=O)OC(C)(C)C)o1
[42] O=C(CCNC(=O)c1ccco1)Nc1ccc(OC(F)F)cc1
[43] CCCOc1ccc(N2CC(C(=O)Nc3ccccc3C(=O)NC)CC2=O)cc1 (configuration not stated)
[44] Cc1nn(C)c(Cl)c1NC(=O)OCc1ccc(F)cc1
[45] COc1ccc(C(=O)COC(=O)c2sccc2C)cc1OC
[46] Cc1ccc(OCc2cc(C(=O)Nc3ccccc3)oc2C)cc1
[47] Cc1cc(C)c(S(=O)(=O)N(C)CC(=O)NCCN2CCOCC2)c(C)c1
[48] CCN(CC)C(=O)C1CCCN(c2ccccc2[N+](=O)[O-])C1 (configuration not stated)
[49] CCc1nc(SCC(=O)Nc2cc(C)on2)n[nH]1
[50] Cc1ccc2nc(-c3ccc(NC(=O)C4CCCO4)cc3)[nH]c2c1 (configuration not stated)
[51] CCOC(=O)N1CCN(CCc2ccccc2)CC1
Assay by compound	41	42	43	44	45	46	47	48	49	50	51
TRPML1 blocker	-14.3	6.6	-0.7	15.6	23.3	14.8	-17.2	8.6	-18.2	-0.7	.
TRPML1 ag	1.7	-0.3	-0.2	2.0	1.0	2.3	0.4	0.6	0.8	-0.5	.
CtBP-E1A blk	3.4	8.0	2.0	-4.5	.	0.3	-12.3	0.7	7.9	-7.7	.
D2 PAM	-6.4	7.5	3.7	-13.0	4.9	-22.4	1.5	-2.7	-3.5	-2.9	-17.5
Six1-Eya2 blk	23.7	-2.0	2.9	1.8	3.5	-3.1	13.9	3.0	-0.3	-9.4	-3.8
TRPV1 PAM	3.2	-0.3	-7.6	4.6	.	7.1	1.3	-25.9	-15.7	8.1	-2.9

A few values from the list.
TRPML1 ag with Cc1ccc(S(=O)(=O)/N=C(/Nc2c(C)n(C)n(-c3ccccc3)c2=O)c2ccccc2)cc1 : -0.6
TRPML1 blocker with N/C(=N\OC(=O)Cc1ccccc1)c1ccncc1 : -10.0
Six1-Eya2 blk with O=C(NCCc1cccc(C(F)(F)F)c1)C1CCC(=O)N(CCc2cccc(F)c2)C1 (configuration not stated) : 2.2
D2 PAM with CCOC(=O)N1CCN(CCc2ccccc2)CC1 : -17.5
TRPML1 ag with Cc1ccc2nc(-c3ccc(NC(=O)C4CCCO4)cc3)[nH]c2c1 (configuration not stated) : -0.5
TRPV1 PAM with COc1ccc(CNC(=O)N2CCN(c3cccc(C)c3C)CC2)cc1OC : 0.6
TRPML1 ag with Cc1cccc(C)c1OCc1cc(C(=O)N2CCN(C3CCCC3)CC2)no1 : 1.5

Ordered by SMILES length (falling): part of the list above.
[48] CCN(CC)C(=O)C1CCCN(c2ccccc2[N+](=O)[O-])C1 (configuration not stated)
[42] O=C(CCNC(=O)c1ccco1)Nc1ccc(OC(F)F)cc1
[45] COc1ccc(C(=O)COC(=O)c2sccc2C)cc1OC
Assay by compound	48	42	45
TRPML1 blocker	8.6	6.6	23.3
TRPML1 ag	0.6	-0.3	1.0
CtBP-E1A blk	0.7	8.0	.
D2 PAM	-2.7	7.5	4.9
Six1-Eya2 blk	3.0	-2.0	3.5
TRPV1 PAM	-25.9	-0.3	.
